Compound activity from PubChem.
PrP UTR inh: inhibition of PrP 5' UTR reporter expression. inhibition, % (concentration not given with the values). cell-based PrP 5' UTR mRNA reporter, plate reader. actives 0.35% (n = 340,000);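 active = every replicate at 50% or more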;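 note: 0 = median of the neutral control wells; tested in H4 reporter cells; numbers are from one replicate; inactives centre near -14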
Mtb hypoxia inh: Mtb hypoxia fluorescent reporter inhibition | fluorescence inhibition, % (test concentration not listed) | M. tuberculosis hypoxia-regulated fluorescent reporter, fluorescence | actives 0.1% (n = 300,000);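 active = 35 to 45% if threefold the growth effect, above 45% if 1.5-fold the growth effect; inactive = the rest, general growth blockers included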;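 note: wells of about 50 µL received 100 nL stock; 0% = vehicle wells and 100% = reference inhibitor wells; whole bacteria with a GFP reporter of the hypoxia response; strong numbers were not always called active; many hits fall short of the cut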
Bead autofluor: flagged as autofluorescent in microsphere protease counterscreen; actives 3.1% (n = 360,000); AID 624483; fluorescence intensity (no concentration beside the values); compound autofluorescence counterscreen, microsphere flow cytometry; active compounds read high;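 active = at least 3 SD above the mean of all compounds, about 16000 in these data; inconclusive = too few beads counted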;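 note: 100 nL of 1 mM stock went into each well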
BJeLR viability: BJeLR cell viability loss | BJeLR (HRASV12) viability, CellTiter-Glo ATP luminescence, 48 h; reference of the scale not given here | inhibition, % (concentration not given with the values) | AID 1554 | actives 0.17% (n = 300,000);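 active = replicate mean above 50%; inconclusive = above 50% but judged a plate artefact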;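 note: 50 nL library stock added to about 25 µL; numbers are from one replicate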
ugtP null kill: growth inhibition of S. aureus ugtP deletion strain; S. aureus RN4220 ugtP deletion, OD600 growth, 16 h; some inactives read as strong as hits; growth inhibition, % (no concentration beside the values); actives 0.54% (n = 330,000); AID 1259309;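 active = z-score under -3 and OD600 up to 0.15 on both plates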;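 note: plate controls were untreated wells for no effect and antibiotic for full effect; wells of about 80 µL received 100 nL stock; the first replicate is given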
RN4220 kill: S. aureus RN4220 growth inhibition; OD600, 16 h; inhibition, % (no concentration beside the values); actives 0.33% (n = 330,000); AID 1259311;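 active = z-score of -3 or lower and OD600 up to 0.18 on both plates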;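 note: plate controls were untreated cells for no effect and reference antibiotic for full effect; stock transfer was 100 nL into about 80 µL; one replicate is shown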
Mtb hypoxia inh growth: recorded beside Mtb hypoxia inh, whose call it bears; growth inhibition, %; measured here: M. tuberculosis growth (absorbance);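 0% = vehicle and 100% = reference antibiotic; read after six days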
Numbers without * were called inactive; ? = inconclusive; / = no result given.

entry | canonical_smiles | PrP UTR inh | Mtb hypoxia inh | Mtb hypoxia inh growth | Bead autofluor
1 | CC1CCCC(C)N1C(=O)CSc1nccc(=O)[nH]1 (centres undefined) | -1.8 | 11.4 | 2.3 | 2942
2 | COC(=O)Nc1ccc(S(=O)(=O)N2CCCCC2C(=O)O)cc1 (centres undefined) | -5.4 | 7.3 | 7.4 | 5423
3 | Cc1nc2sc(C(c3ccco3)N3CCC4(CC3)OCCO4)c(O)n2n1 (centres undefined) | -12.5 | 15.9 | 0.6 | 9677
4 | CCOc1cc(CNCCO)cc(Br)c1OCc1ccc(Cl)cc1 | -10.9 | 20.4 | 18.8 | 3381
5 | CCN(CC)c1ccc2c(C)c(-c3ccc(N)cc3)c(=O)oc2c1 | -20.2 | 11.2 | 9.9 | ?
6 | O=C(Nc1ccc2c(c1)OCCO2)c1ccoc1 | -45.1 | 6.8 | 17.9 | 3629
7 | Cc1ccc(S(=O)(=O)Nc2cccc(C(=O)N3CCN(c4ccccc4O)CC3)c2)cc1F | -21.6 | 1.1 | -5.9 | 7733
8 | C=CCn1c(=O)c2ccccc2n2c(SCC(=O)N(C)C)nnc12 | -13.9 | -0.4 | 3.7 | 3043

entry | BJeLR viability | ugtP null kill | RN4220 kill
1 | 3.2 | 1.5 | 1.6
2 | -4.7 | 4.9 | 2.1
3 | 5.8 | 2.5 | 2.4
4 | 4.5 | -15.0 | 46.2
5 | -5.2 | -16.4 | -2.5
6 | -1.8 | 4.8 | 1.6
7 | 3.1 | -8.3 | 10.2
8 | 14.8 | 17.5 | 9.1

Next section
entry | canonical_smiles | PrP UTR inh | Mtb hypoxia inh | Mtb hypoxia inh growth | Bead autofluor
9 | O=C(c1ccco1)N1CCN(c2ncnc3sc4c(c23)CCC4)CC1 | -18.1 | 12.4 | 18.6 | 3245
10 | CC12CCC3C(CC=C4CC(O)CCC43C)C1CC(=CN1CCOCC1)C2=O (centres undefined) | -5.8 | 13.1 | 8.4 | 3917
11 | CC(C)(C)NC(=O)NC(=O)CN1C(=O)NC(C)(c2ccccc2)C1=O (centres undefined) | 1.0 | 3.7 | -0.8 | 3569
12 | Cc1cnc(C(=O)Nc2ccc(S(=O)(=O)N(C(C)C)C(C)C)cc2)cn1 | -29.9 | 3.5 | 10.0 | 3900
13 | Cc1onc(-c2c(F)cccc2Cl)c1C(=O)N(Cc1ccccc1)C(C)C | -24.5 | 0.4 | -1.5 | 2727
14 | Fc1ccc(-c2ncc3ccccn23)cc1 | -18.1 | 10.8 | 1.5 | 4490
15 | Cc1ccccc1NC(=O)c1ccccn1 | -23.2 | 8.7 | 0.2 | 3658
16 | Cc1ccsc1C(=O)OCC(=O)NCCNC(=O)COC(=O)c1sccc1C | -0.1 | -4.2 | 5.9 | ?

entry | BJeLR viability | ugtP null kill | RN4220 kill
9 | 12.5 | 7.4 | 12.1
10 | / | 1.6 | 2.4
11 | -14.7 | 9.6 | -1.0
12 | -1.6 | 7.2 | 9.7
13 | -6.6 | -1.8 | 4.2
14 | 8.5 | -0.7 | 1.3
15 | 2.7 | 3.2 | 4.0
16 | 10.8 | 1.8 | 2.8

Further entries:
entry | canonical_smiles | PrP UTR inh | Mtb hypoxia inh | Mtb hypoxia inh growth | Bead autofluor
17 | Cc1ccccc1C(=O)NCCNc1ccc([N+](=O)[O-])cc1 | -16.7 | 13.3 | 5.9 | 4236
18 | COC(=O)COc1cc(OCC(=O)OC)c2c(C)c(Cl)c(=O)oc2c1 | -11.2 | 0.2 | 4.2 | 2436
19 | COc1ccc(CNc2ncnc3cc(Cl)ccc23)cc1OC | -23.1 | 0.4 | 2.9 | 4134
20 | O=C(NCCc1ccccc1)C1CCCN(c2ncnc3c2nc2n3CCCCC2)C1 (centres undefined) | 6.8 | -7.8 | 10.8 | 4909
21 | COC(=O)CC1C(=O)NCCN1C(=O)Nc1ccc(Cl)cc1 (centres undefined) | -13.9 | 3.9 | 7.2 | 2861
22 | CC1=Nc2cc(C(=O)NCCCN3CCOCC3)ccc2Sc2c(C)ccc(C)c21 | -3.6 | 4.3 | 3.8 | 5927
23 | Cc1ccc(S(=O)(=O)N2CCCCC2)cc1NC(=O)Cn1cc(C(F)(F)F)ccc1=O | -17.0 | 7.7 | 0.1 | 3903
24 | COc1c(Br)cc(C(N)=O)cc1OCc1ccccc1 | -9.2 | -4.8 | -6.4 | 2426

entry | BJeLR viability | ugtP null kill | RN4220 kill
17 | 3.3 | 3.0 | 1.1
18 | -2.7 | 8.5 | 7.1
19 | -12.3 | -15.4 | -2.0
20 | -4.1 | -0.7 | 1.7
21 | -6.8 | 4.8 | 3.7
22 | 1.6 | 5.7 | 3.4
23 | / | 5.4 | -1.0
24 | -5.6 | 10.1 | -3.1

4 structures already listed, arranged by heavy-atom count, largest number first:
entry | canonical_smiles | PrP UTR inh | Mtb hypoxia inh | Mtb hypoxia inh growth | Bead autofluor
23 | Cc1ccc(S(=O)(=O)N2CCCCC2)cc1NC(=O)Cn1cc(C(F)(F)F)ccc1=O | -17.0 | 7.7 | 0.1 | 3903
19 | COc1ccc(CNc2ncnc3cc(Cl)ccc23)cc1OC | -23.1 | 0.4 | 2.9 | 4134
21 | COC(=O)CC1C(=O)NCCN1C(=O)Nc1ccc(Cl)cc1 (centres undefined) | -13.9 | 3.9 | 7.2 | 2861
24 | COc1c(Br)cc(C(N)=O)cc1OCc1ccccc1 | -9.2 | -4.8 | -6.4 | 2426

entry | BJeLR viability | ugtP null kill | RN4220 kill
23 | / | 5.4 | -1.0
19 | -12.3 | -15.4 | -2.0
21 | -6.8 | 4.8 | 3.7
24 | -5.6 | 10.1 | -3.1

Other structures:
entry | canonical_smiles | PrP UTR inh | Mtb hypoxia inh | Mtb hypoxia inh growth | Bead autofluor
25 | COc1ccc(OC)c(-c2csc(NC(=O)CN3C(=O)C4CCCCC4C3=O)n2)c1 (centres undefined) | 13.5 | 5.3 | -3.0 | ?
26 | O=C(NC1CC1)C1CCN(c2ncnc3c2sc2cccc(F)c23)CC1 | -19.5 | 18.2 | 13.6 | 5583
27 | CC(=O)n1c2ccccc2c2nc(NC(C)C)sc21 | -21.5 | / | / | 4070
28 | CC(=O)Nc1ccc(NC(=O)COC(=O)/C(=C/c2ccccc2)n2nnnc2C)cc1 | 2.0 | 6.4 | 18.0 | 5996
29 | Oc1cccc(/C=N/Nc2cccc3cccnc23)c1 | -47.7 | / | / | 4092
30 | CCCc1ccc(C(=O)CCC(=O)O)cc1 | -35.6 | 11.3 | 8.0 | 3731
31 | O=C(CSCc1ccccc1Cl)Nc1ccc2c(c1)OCCO2 | -101.1 | 4.6 | 6.2 | 20949*
32 | CC1CN(C(=O)c2ccn(C)n2)CC(C)O1 (centres undefined) | -33.7 | 7.7 | 7.8 | 11067

entry | BJeLR viability | ugtP null kill | RN4220 kill
25 | 3.6 | 1.2 | 2.0
26 | 5.8 | -2.1 | 2.1
27 | -1.8 | 5.8 | 2.5
28 | 7.6 | -1.5 | 1.1
29 | 7.7 | / | /
30 | 0.3 | 2.4 | 5.1
31 | 5.1 | 5.2 | 3.5
32 | 5.7 | -1.1 | 4.9

Next part.
entry | canonical_smiles | PrP UTR inh | Mtb hypoxia inh | Mtb hypoxia inh growth | Bead autofluor
33 | Cc1cccc(-n2nnnc2SCn2nnc3ccccc3c2=O)c1 | -20.9 | 2.9 | 14.2 | 20246*
34 | CC(=NNC(=O)c1ccncc1)c1cccs1 | / | 4.4 | -4.4 | /
35 | CCC/C(C)=N\Nc1nc2c(c(=O)n(C)c(=O)n2C)n1C | -24.3 | / | / | 3674
36 | CC(=O)N1CCCc2cc(S(=O)(=O)N3CCCC(C(=O)N4CCN(c5ccccc5)CC4)C3)ccc21 (centres undefined) | -19.6 | -6.1 | -2.7 | 5436
37 | O=C(Nc1ccccc1C(=O)N1CCCCCC1)c1ccccc1Cl | 16.0 | -1.8 | -5.0 | 6362
38 | O=C(O)CCCCCNS(=O)(=O)c1c(Cl)cccc1Cl | -20.2 | 4.9 | 3.9 | 9637
39 | COCCCN1C(=O)c2ccc(C(=O)Nc3ccc(OC)cc3)cc2C1=O | -16.3 | 7.1 | 11.4 | 3831
40 | Cc1sc2ncnc(N3CCN(C(=O)c4ccco4)CC3)c2c1C | -8.8 | -4.2 | 4.9 | 5149

entry | BJeLR viability | ugtP null kill | RN4220 kill
33 | -5.5 | -3.8 | 4.4
34 | / | 10.9 | 4.8
35 | -3.1 | / | /
36 | 11.4 | 2.1 | 3.5
37 | 0.1 | 3.6 | 8.8
38 | -3.8 | 4.3 | 2.8
39 | -5.7 | -4.5 | 4.1
40 | 2.0 | 2.1 | 1.3

More compounds:
entry | canonical_smiles | PrP UTR inh | Mtb hypoxia inh | Mtb hypoxia inh growth | Bead autofluor
41 | COc1ccc(C(C)=O)cc1COC(=O)Cc1cc(OC)c(OC)c(OC)c1 | -28.6 | 8.6 | 0.6 | 5214
42 | COc1cc(Cl)c(C)cc1NC(=O)CN1CCCCCC1 | -24.2 | -4.4 | -4.8 | 4647
43 | O=C(N/N=C/c1c[nH]c2ccccc12)C1CC(=O)N(c2ccccc2)C1 (centres undefined) | -38.1 | / | / | 2500
44 | Cc1ccc(O)c(-c2cc(C(=O)Nc3cccnc3)[nH]n2)c1 | -51.8 | -21.6 | 1.1 | ?
45 | COC(=O)COc1ccc(/C=N/NC(=O)c2ccc(N(Cc3ccccc3)S(C)(=O)=O)cc2)cc1 | -27.1 | / | / | 2479
46 | Cc1ccc(-c2[nH]ncc2CNCCc2cnn(-c3ccccc3)c2)cc1C | 6.8 | 2.2 | 11.6 | 4920
47 | COc1ccc2c(=O)c3c(=O)n(Cc4ccco4)c(C(C)C)nc3oc2c1 | -7.7 | -3.2 | 6.4 | 4033
48 | Cc1cccc(N(CC(=O)N=Nc2c(O)[nH]c3ccccc23)S(C)(=O)=O)c1C | -15.7 | 11.3 | 7.8 | 11464

entry | BJeLR viability | ugtP null kill | RN4220 kill
41 | 1.1 | -10.3 | 1.8
42 | -10.6 | -0.9 | -3.4
43 | 8.5 | / | /
44 | -2.8 | -4.1 | 2.6
45 | 0.5 | / | /
46 | 7.8 | 9.0 | 1.1
47 | -5.7 | -9.5 | 0.2
48 | 6.5 | -14.2 | 4.1

(further entries)
entry | canonical_smiles | PrP UTR inh | Mtb hypoxia inh | Mtb hypoxia inh growth | Bead autofluor
49 | O=C(NCCc1ccc(Cl)cc1)C1CC(=O)N(C2CCCCC2)C1 (centres undefined) | -0.5 | 2.4 | 3.3 | 4219
50 | Cc1ccc(NC(=O)c2ccc(CSc3nnc(C)s3)cc2)cc1 | -109.1 | 9.5 | 3.8 | 2735
51 | Cc1ccc(C)c(Oc2coc3cc(OCC(=O)Nc4ccccc4C(C)C)ccc3c2=O)c1 | / | 15.3 | 5.3 | /
52 | Cc1nc(Cc2nnc(SCC(=O)Nc3c(C)cccc3C)o2)cs1 | -27.5 | -2.5 | -4.9 | ?
53 | COc1cc(-c2nnc(-c3ccncc3)o2)ccc1OCc1ccccc1 | -21.8 | 14.0 | 3.9 | 9835
54 | Cc1ccc(C=NNC(=O)CNC(=O)C23CC4CC(CC(C4)C2)C3)o1 | / | 6.3 | -3.9 | /
55 | CC(C)C(CN1CCCC1CN1C(N)=NCC1Cc1ccccc1)N1CC(Cc2ccccc2)N(CCc2ccc(Cl)c(Cl)c2)C1=N (centres undefined) | / | / | / | /
56 | CCOc1ccccc1-n1c(CNc2ccc(F)cc2)nnc1SCC(=O)NCc1ccco1 | -18.6 | 7.2 | -3.3 | 2788

entry | BJeLR viability | ugtP null kill | RN4220 kill
49 | -0.2 | -4.0 | 7.9
50 | -3.6 | -2.1 | -14.2
51 | 3.5 | -8.3 | -4.7
52 | -6.9 | -1.8 | -0.3
53 | -5.6 | -12.4 | 4.5
54 | / | 3.1 | 3.2
55 | / | 100.4* | 100.8*
56 | -13.7 | -9.6 | 6.0

The list goes on.
entry | canonical_smiles | PrP UTR inh | Mtb hypoxia inh | Mtb hypoxia inh growth | Bead autofluor
57 | COc1cc(NC(=O)Nc2cccc3cccnc23)cc(OC)c1OC | -3.8 | 3.4 | 15.4 | /
58 | COc1ccc(/C=N/NC(=O)CCOc2ccccc2C)cc1OC | -3.0 | / | / | 2144
59 | COc1ccc([C@H]2/C=C\CN(C(=O)c3ccc(C)cc3)[C@@H](C)C(=O)N2Cc2ccc(F)cc2)cc1 | 11.9 | / | / | 3115
60 | CC12CCC(C(=O)N(CC(O)CN3CCN(Cc4ccccc4)CC3)C1=O)C2(C)C (centres undefined) | / | 7.9 | 7.3 | 5862

entry | BJeLR viability | ugtP null kill | RN4220 kill
57 | -2.9 | 5.2 | 2.3
58 | -5.9 | / | /
59 | 10.6 | / | /
60 | -1.7 | 9.5 | 6.2
